High-throughput results deposited in PubChem by several laboratories.
UUG fidelity: modulators of start codon recognition fidelity in yeast. S. cerevisiae UUG-firefly luciferase reporter, luminescence/redox ratio. activity score, % at 18.7 µM. 350,000 compounds, 0.13% hits. AID 602363;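 active = replicate mean at a twofold rise or more, about +100% in these data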;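 also: firefly luciferase made from a UUG start codon reports start codon fidelity; reporter light over untreated wells divided by growth signal over untreated wells; some hits fall short of that in this replicate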
MT1-MMP act inh: blocks activation of human MT1-MMP; P50281; HT1080 RFP-PRO-GFP cells, GFP/RFP ratio fluorescence, overnight; percent of plate control window, DMSO zero; GFP/RFP ratio change, % at 20 µM; 360,000 compounds, 0.061% hits;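 active = GFP/RFP ratio change of at least 30% with cell ATP level not reduced by more than half and red fluorescence within 50% of control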; also: strong numbers were not always called active
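Material – HT1080 RFP-PRO-GFP cells · Control set – DMSO wells and RFP-L50D-GFP cells · Incubation – overnight cell settling, then overnight compound exposure, 37 °C, 5% CO2 · Compound dosing – single-point 20 µM compound, 1% DMSO · Read-out – GFP/RFP fluorescence ratio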
HIV Env fusion: HIV envelope-mediated fusion inhibition; inhibition, % at 12.3 µM; 360,000 compounds, 1.1% hits; AID 651610; HeLa-JRFL Env/CEM21 cell fusion, luciferase;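 active = mean replicate inhibition score of at least 50 and every replicate individually at or above 50; inconclusive = only one of the two criteria met; inactive = mean below 50 and not all replicates reaching 50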;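 also: 0% = plate neutral controls and 100% = maraviroc near 300 nM; one replicate is shown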
PABP polyA inh: blocks human PABP binding to poly(A) RNA | fluorescence polarization | P11940 | inhibition, % at 35 µM | 290,000 compounds, 1% hits;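 active = 50% or more with normal probe brightness, or confirmed in later tests; inconclusive = above 50% with abnormal brightness, or retests that disagree; inactive = below 50% or failed in later tests; about a fifth of its hits are not listed in these tables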;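 also: calls also rest on retests at 20 µM and on dose response follow-up; controls were probe without protein and protein plus probe with vehicle; some compounds called inactive have numbers as strong as hits; many hits fall short of the cut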
Target sequence (P11940 whole entry, looked up): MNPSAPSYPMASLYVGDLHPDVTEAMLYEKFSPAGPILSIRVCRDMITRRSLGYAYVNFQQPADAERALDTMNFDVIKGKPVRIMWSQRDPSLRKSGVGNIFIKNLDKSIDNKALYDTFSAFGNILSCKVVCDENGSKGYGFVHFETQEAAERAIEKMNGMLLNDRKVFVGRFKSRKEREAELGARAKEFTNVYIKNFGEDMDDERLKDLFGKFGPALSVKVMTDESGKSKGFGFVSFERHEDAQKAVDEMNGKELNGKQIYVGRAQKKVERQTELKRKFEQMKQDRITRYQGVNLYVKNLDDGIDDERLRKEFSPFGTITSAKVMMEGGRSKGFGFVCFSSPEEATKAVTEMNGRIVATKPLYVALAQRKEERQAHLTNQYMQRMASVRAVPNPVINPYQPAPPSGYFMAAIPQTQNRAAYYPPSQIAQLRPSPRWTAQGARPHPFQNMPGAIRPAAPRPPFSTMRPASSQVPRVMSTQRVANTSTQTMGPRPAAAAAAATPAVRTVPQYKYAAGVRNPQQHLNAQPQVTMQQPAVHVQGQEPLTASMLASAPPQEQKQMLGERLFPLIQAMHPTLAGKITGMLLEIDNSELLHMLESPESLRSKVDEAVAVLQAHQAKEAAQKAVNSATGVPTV
eIF4H FP inh: inhibitors of RNA binding by human eIF4H; Q15056; eIF4H fluorescence polarization binding assay; inhibition, % at 35 µM; 290,000 compounds, 0.94% hits;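 active = 50% or more with normal probe brightness, or confirmed in later tests; inconclusive = above 50% with abnormal brightness, or retests that disagree; inactive = below 50% or failed in later tests; about a fifth of its hits are not listed in these tables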;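 also: calls also rest on retests at 20 µM and on dose response follow-up; 0% = protein and probe with vehicle and 100% = probe without protein; strong numbers were not always called active; many hits fall short of the cut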
Rce1 inhib: blocks yeast Ras-converting enzyme; calls only; AID 2563; 290,000 compounds, 0.27% hits; Q03530; yeast membranes, quenched prenylated peptide cleavage fluorescence;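 active = fall in fluorescence gain of 50% or more versus controls, with final raw signal at or below 3038400; inconclusive = same 50% fall but final raw signal above 3038400; inactive = fall in fluorescence gain under 50%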;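 also: plate controls were neutral control wells for no effect and wells lacking membranes for full effect; tested at 10 µM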
CSC inhib: blocks cancer stem cells; inhibition, % at 7.5 µM; 300,000 compounds, 1.1% hits; cancer stem cell-like cells viability, luminescence;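 active = mean at 75% or more and at least half the replicates too; inconclusive = mean and replicates disagree; tested in HMLE shEcad cells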;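 also: 0% = median of negative and 100% = median of positive control wells; the first replicate is given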
MT1-MMP act inh RFP: second read-out of MT1-MMP act inh, no call of its own (marks repeat the call); RFP signal change, %; measured here: RFP expression control read;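 0 = vehicle wells; hits needed this value within 50% of zero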
* = called active by the depositor; i = inactive; u = inconclusive; x = not tested or not shown; & = joins results of further samples. This is a subset; rates above refer to the full screens.

SMILES	UUG fidelity	MT1-MMP act inh	MT1-MMP act inh RFP	HIV Env fusion	PABP polyA inh	eIF4H FP inh	Rce1 inhib	CSC inhib
O=C(CSc1ccc(-c2nc3ccccc3[nH]2)cn1)Nc1ccc2c(c1)OCCO2	-9	8	1	x	6	-7	i	-3
COc1ccc(OC)c(-c2cc(C(=O)N/N=C(\C)c3cccnc3)c3ccccc3n2)c1	-12	1	-3	3	-13	-3	i	-15
CCN(CC)CCn1c(=S)[nH]c2ccc(Cl)cc2c1=O	4	2	4	x	-3	4	i	-22
COc1ccc(/C=C/C(=O)OCC(=O)c2ccc3c(c2)NC(=O)CO3)cc1	-18	4	0	16	-14	-2	x	-1
CC(=O)c1ccc(NC(=O)C2(c3ccccc3)CC2(Cl)Cl)cc1 (stereo unspecified)	x	6	4	2	2	-14	i	-11
CC(C)Cn1c(CN2C(=O)c3ccccc3C2=O)nc2ccccc2c1=O	-12	-5	6	x	1	0	i	-6
Cc1cc(C)c(C)c(S(=O)(=O)NCCCn2ccnc2)c1C	-10	0	6	6	6	2	i	-3
COc1ccccc1-n1c(-c2ccc(F)cc2)coc1=O	-7	-1	1	x	8	-14	i	-8
Cc1ccc2c(c1)-c1cc(C)ccc1C2=O	-9	3	1	5	x	x	x	x
Cc1onc(-c2c(F)cccc2Cl)c1C(=O)ONC(=O)c1ccco1	-7	-3	4	-3	2	20	i	-3
O=C(COC(=O)COc1ccc(Cl)cc1)NC1CCCCCC1	-10	2	3	-5	x	x	x	x
COc1ccc(C(=O)N/N=C/c2ccc(OC)c(OS(=O)(=O)c3ccccc3)c2)cc1	x	0	0	17	5	-3	i	42
O=[N+]([O-])c1cc(Br)c(O)c(/C=N/Nc2nc3ccccc3s2)c1	-12	0	-16	5	-3	10	x	x
CCn1cc(C(=O)O)c(=O)c2cnc(N3CCN(C(=S)NC(=O)c4ccc(Br)cc4)CC3)nc21	x	x	x	x	-1	-11	i	4
CCCCC(=O)Nc1ccc(C(=O)N(CC)c2ccccc2C)cc1	x	6	3	-8	-3	0	i	-9
CCc1ccc(C(=O)c2cc3ccc(O)cc3oc2=O)cc1	-9	-1	-4	-17	12	6	i	-6
CCOc1ccc(S(=O)(=O)N2CCCCC2)cc1NS(=O)(=O)c1cccs1	3	2	-2	1	x	x	x	x
Oc1ccc(-c2[nH]ncc2-c2ccc(Br)cc2)c(O)c1	-14	3	2	16	-4	-4	i	12
COc1ccc(N2CCN(C(=O)CN3C(=O)NC(C)(C4CC4)C3=O)CC2)cc1 (stereo unspecified)	-16	-2	-1	7	x	x	x	x
C/C=C1\COC(C(=O)NCc2ccccc2)(C(F)(F)F)C=C1C=C1CCCCC1 (stereo unspecified)	-16	-2	-6	35	x	x	i	1

Look-ups from above.
CC(=O)c1ccc(NC(=O)C2(c3ccccc3)CC2(Cl)Cl)cc1 (stereo unspecified) in PABP polyA inh reads 2
CCOc1ccc(S(=O)(=O)N2CCCCC2)cc1NS(=O)(=O)c1cccs1 in HIV Env fusion reads 1
C/C=C1\COC(C(=O)NCc2ccccc2)(C(F)(F)F)C=C1C=C1CCCCC1 (stereo unspecified) in UUG fidelity reads -16

Other structures:
SMILES	UUG fidelity	MT1-MMP act inh	MT1-MMP act inh RFP	HIV Env fusion	PABP polyA inh	eIF4H FP inh	Rce1 inhib	CSC inhib
Cc1ccc(C)c(OCC(=O)Nc2c(C)n(C)n(-c3ccccc3)c2=O)c1	-1	-1	4	-6	x	x	x	x
CC(=O)c1c(C)[nH]c(C(=O)OCC(=O)c2ccc3c(c2)NC(=O)CO3)c1C	3	8	-5	x	x	x	x	25
Cc1ccc(C2C=C(c3ccccc3)Nc3nc(N4C(=O)CCC4=O)nn32)cc1 (stereo unspecified)	x	-38	4	-4	-7	5	x	x
CN(C)S(=O)(=O)c1cccc(C(=O)Nc2ccccc2[N+](=O)[O-])c1	x	-5	2	29	2	4	i	5
CCOc1ccc(C(=O)Nc2cnn(Cc3ccc(Cl)c(Cl)c3)c2)cc1	-21	4	-13	x	2	1	i	-8
C=CCNC(=O)c1ccc(CNS(=O)(=O)c2ccc(NC(C)=O)cc2)cc1	-1	0	-6	-38	-17	-1	i	-13
COc1cc(C(=O)/C=C/c2cccnc2)ccc1O	-13	-5	-5	-11	6	-10	i	28
O=C(NC12CC3CC(CC(C3)C1)C2)N1CCC(n2nnc3ccccc32)CC1	-20	5	5	6	-5	-14	i	3
CC(C)(C)c1ccc(C2SCC(=O)N2c2cccc(C(=O)O)c2)cc1 (stereo unspecified)	5	5	1	2	7	-2	i	x
Cc1onc(-c2ccccc2)c1C(=O)OCC(=O)N1CCC(C)CC1	x	-1	-6	-5	x	x	x	-6
COC(=O)CSc1nnc(NC(=O)/C=C\c2ccc3c(c2)OCO3)s1	x	0	5	-6	35	-4	i	27
CC1CCCCC12NC(=O)N(CC(=O)NCc1cccs1)C2=O (stereo unspecified)	-1	-1	1	-24	x	x	x	x
O=C(NN1C(=O)/C(=C/C=C/c2ccco2)SC1=S)c1ccncc1	-6	5	22	-16	94*	84*	i	4
COc1ccccc1OCc1nnc(SCC(=O)Nc2ccc(N3CCOCC3)cc2)n1C	x	2	4	0	-5	-8	i	-8
C=C(C)C1CC=C(C)/C(=N/NC(=O)c2ccc(NC(=O)CC)cc2)C1 (stereo unspecified)	-10	4	5	x	0	-1	i	-14
Cn1c(=O)c2c(nc(CN3CCN(c4ccccc4)CC3)n2Cc2ccccc2Cl)n(C)c1=O	-7	0	-11	-287	-3	0	i	x
CC(=O)C1[C@H](N(C)C)CC2C3CC=C4CC(O)CC[C@]4(C)C3CC[C@@]21C (stereo partly specified)	-11	-3	4	-2	6	8	i	-6
CC(C)n1nc(C(=O)OCC(=O)N2CC(=O)Nc3ccccc32)c2ccccc2c1=O	8	2	1	-11	u	5	i	-2
C/C(=N\NC(=O)COc1ccccc1[N+](=O)[O-])c1cccc(NC(=O)c2ccncc2)c1	-36	2	-2	-25	8	-4	i	13
COc1ccc(-c2cc3c(=O)n(CC(=O)N4CCCC4)ncn3n2)cc1	x	2	2	-19	-1	-3	i	-1
CCCN1CCc2c(sc(NC(=O)CCS(=O)(=O)c3ccccc3)c2C(N)=O)C1	-19	0	2	-5	-4	-8	i	0
COC(=O)c1c(NC(=O)/C=C/C(=O)O)sc(C)c1-c1ccc(C(C)C)cc1	x	-8	-12	8	2	-5	i	9
O=C(COC(=O)C1CCN(c2ccc(C(F)(F)F)cn2)CC1)NC1CCCCC1	-4	0	0	-119	x	x	i	3
Cc1ccc(-n2nc3c(c2NC(=O)c2ccc4c(c2)OCO4)CSC3)cc1	-22	2	1	x	9	-1	i	-12
O=C(COC(=O)/C=C/c1cccc(F)c1)NC1CC1	-12	0	3	x	x	x	x	-16
CC(=O)c1ccc(N2CC(C)(C)C2=O)cc1	-7	5	2	-3	3	49	i	-4
CN1CCN(C(=O)Nc2ccccc2CC[N+](=O)[O-])CC1	-22	-6	-1	-10	2	-5	i	-10
CC1(C(=O)Nc2cccc(Oc3ccccc3)c2)CCN1Cc1cccc2c1OCO2 (stereo unspecified)	9	-5	-9	36	x	x	x	x
COc1ccc(CN(C)S(=O)(=O)c2nnc(NC(=O)c3ccccc3OC)s2)cc1OC	-17	2	-4	10	8	3	i	31
COc1cccc(NC(=O)COC(=O)CNS(=O)(=O)c2c(F)cccc2F)c1	-4	-2	6	x	28	-10	i	-6
COc1ccc(/C=c2\sc3nc(-c4ccccc4)c(-c4ccccc4)n3c2=O)cc1OC	3	1	-1	x	6	5	i	3
Cc1[nH]c2ccccc2c1C(=O)C(C)OC(=O)c1ccccc1NCCO (stereo unspecified)	-15	-4	-5	10	x	x	i	-3
O=C(NC1CCCCC1)C1CCCN(S(=O)(=O)c2cccs2)C1 (stereo unspecified)	-11	8	2	x	9	2	i	x
O=C(CCC(=O)Nc1ccc(F)cc1)N/N=C/c1ccccc1	-8	5	2	-6	-8	-5	i	5
Cc1ccc(Nc2nc(N)nc(CCl)n2)cc1	-21	-5	-6	-26	1	0	i	-12
COc1ccc(S(=O)(=O)CC(=O)c2cc(C)c(O)c(C)c2)cc1	x	-1	-4	16	8	-4	i	0
COc1ccccc1Nc1nc(N)nc(CN2CCC(Cc3ccccc3)CC2)n1	-9	0	3	-66	-6	-7	i	-9
COc1ccc(C(=O)c2cnc3ccccc3c2-c2ccccc2)cc1	-14	-10	-10	91*	-1	-4	i	18
CC(C)CCNC(=O)C(C)N(Cc1ccc(F)cc1)C(=O)c1ccc(CN2CCOCC2)o1 (stereo unspecified)	x	0	3	0	4	-3	i	-2
CC(=O)c1sc(NC(=O)c2ccc(C)cc2)nc1C	-15	-9	-3	-232	-5	6	i	4

HIV Env fusion: entries above that show a hit.
Molecule | UUG fidelity | MT1-MMP act inh | MT1-MMP act inh RFP | HIV Env fusion | Rce1 inhib
COc1ccc(C(=O)c2cnc3ccccc3c2-c2ccccc2)cc1 | -14 | -10 | -10 | 91* | i

Later entries
SMILES	UUG fidelity	MT1-MMP act inh	MT1-MMP act inh RFP	HIV Env fusion	PABP polyA inh	eIF4H FP inh	Rce1 inhib	CSC inhib
Clc1ccc(Cn2nnc3ccccc32)cc1	-7	-1	0	-162	3	6	i	-8
COc1ccc(CCn2c(C)cc3c(c2=O)C(c2ccncc2)C(C#N)=C(N)O3)cc1OC (stereo unspecified)	1&8	-1	0	x	-7	-8	i	x
Cc1ccc(N2NC3(CCN(C(N)=O)CC3)NC2=O)cc1	x	x	x	1	17	8	i	12
Cc1ccc(S(=O)(=O)N2CCCCC2CCNC(=O)C(=O)NCc2ccccc2)cc1 (stereo unspecified)	-9	-9	-18	x	x	x	i	63
CC(C)n1c(O)c(N=Nc2ccc(Cl)nn2)c2ccccc21	-18	-50	4	-9	-6	29	i	35
CCc1nc(-c2ccccc2)cc(=O)[nH]1	-16	3	3	x	2	1	i	-3
Cc1oc(-c2ccccc2F)nc1CSCC(=O)NC1CC1	x	-1	0	8	-5	-6	i	-1

In the list so far, 5 have a thiophene ring, fused or not.
SMILES	UUG fidelity	MT1-MMP act inh	MT1-MMP act inh RFP	HIV Env fusion	PABP polyA inh	eIF4H FP inh	Rce1 inhib	CSC inhib
CCOc1ccc(S(=O)(=O)N2CCCCC2)cc1NS(=O)(=O)c1cccs1	3	2	-2	1	x	x	x	x
CC1CCCCC12NC(=O)N(CC(=O)NCc1cccs1)C2=O (stereo unspecified)	-1	-1	1	-24	x	x	x	x
CCCN1CCc2c(sc(NC(=O)CCS(=O)(=O)c3ccccc3)c2C(N)=O)C1	-19	0	2	-5	-4	-8	i	0
COC(=O)c1c(NC(=O)/C=C/C(=O)O)sc(C)c1-c1ccc(C(C)C)cc1	x	-8	-12	8	2	-5	i	9
O=C(NC1CCCCC1)C1CCCN(S(=O)(=O)c2cccs2)C1 (stereo unspecified)	-11	8	2	x	9	2	i	x
